Compound activity from PubChem BioAssay.
RGS16-Gao HTS: regulators of human RGS16-Galphao interaction | O15492+P09471 | bead-based flow cytometry RGS16-Galphao binding, fluorescence; actives lie on both sides | binding response (% of control), % at 10 µM | 0.38% of 220,000 active;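 active means below 25% or above 175%, edge rows of some plates excepted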;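 further: Galphao activated by GDP with aluminum fluoride before binding; 100% = wells without compound and 0% = beads without RGS; some results beyond the cut were filed as inactive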
Target sequence (O15492 whole entry, looked up): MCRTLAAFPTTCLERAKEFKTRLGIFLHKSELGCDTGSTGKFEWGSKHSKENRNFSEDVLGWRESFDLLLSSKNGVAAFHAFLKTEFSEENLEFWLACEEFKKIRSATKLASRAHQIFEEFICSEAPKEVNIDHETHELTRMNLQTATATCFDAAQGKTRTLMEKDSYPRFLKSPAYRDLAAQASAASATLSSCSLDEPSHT
Target sequence (P09471 whole entry, looked up): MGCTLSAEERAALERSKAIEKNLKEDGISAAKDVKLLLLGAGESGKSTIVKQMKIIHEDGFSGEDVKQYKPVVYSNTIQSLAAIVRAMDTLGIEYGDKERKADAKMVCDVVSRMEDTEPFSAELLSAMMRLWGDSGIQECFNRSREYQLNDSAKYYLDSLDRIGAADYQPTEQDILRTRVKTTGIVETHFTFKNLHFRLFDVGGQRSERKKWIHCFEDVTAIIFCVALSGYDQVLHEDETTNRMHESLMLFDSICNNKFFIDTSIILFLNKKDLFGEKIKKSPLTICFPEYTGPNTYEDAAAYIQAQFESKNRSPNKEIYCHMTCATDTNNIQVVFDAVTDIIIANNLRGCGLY
HSV augment: increases HSV replication in cells; 0.005% of 220,000 active; maximum fold increase; HSV replication augmentation in cells, fold increase;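 active means peak rise of 1.5-fold or more in the series; inconclusive means self-fluorescent or not available for retest; tested in PC3 cells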;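 further: first round at 10 µM; read as green reporter fluorescence; hits show the peak of a series up to 25 µM; 1 = signal of infected wells without compound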
GALR2 ag: agonists of human galanin receptor 2 (GALR2); AID 803; activation, %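 (tested at 5 µM)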; 0.48% of 140,000 active; O43603; GALR2-expressing cells, agonist activation read-out;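 active means above mean plus 3 SD of all compounds, about 5% in these data, not always enough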;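 further: 0% = vehicle buffer wells and 100% = reference agonist at full effect; tested in CHO reporter cells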
Target sequence (O43603 whole entry, looked up): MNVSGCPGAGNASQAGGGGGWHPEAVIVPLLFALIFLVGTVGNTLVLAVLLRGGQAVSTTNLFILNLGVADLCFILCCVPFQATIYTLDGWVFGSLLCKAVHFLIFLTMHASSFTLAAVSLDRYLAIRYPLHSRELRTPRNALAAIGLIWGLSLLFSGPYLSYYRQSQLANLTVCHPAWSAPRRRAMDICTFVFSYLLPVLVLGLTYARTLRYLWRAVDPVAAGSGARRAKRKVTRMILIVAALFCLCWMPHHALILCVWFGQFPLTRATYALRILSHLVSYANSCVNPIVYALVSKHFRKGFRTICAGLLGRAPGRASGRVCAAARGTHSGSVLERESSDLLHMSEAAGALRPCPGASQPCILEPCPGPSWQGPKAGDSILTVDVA
PKD1 inh: blocks activity of human protein kinase D1 | Q15139 | PKD1 kinase fluorescence polarization assay | inhibition, %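 (about 10 µM by stock and volumes)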 | 0.056% of 200,000 active | AID 797;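 active means inhibition of 50% or more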;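 further: controls were vehicle for no effect and a reference inhibitor for full effect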
INS promoter inh: TRM-6 insulin promoter activity inhibition | AID 1273 | TRM-6 cells (human fetal islet line), insulin promoter-eGFP reporter, imaging; reporter expression induced with tamoxifen | 0.9% of 130,000 active | inhibition, % at 2 µM;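 active means inhibition above the mean plus 3 SD, with well images judged a real hit on visual review, cut at about 60% in these data, passing the limit was not always enough; inconclusive means inhibition over the cutoff but images rejected on review; inactive means inhibition not above the cutoff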
INS promoter inh cell count: second read-out of INS promoter inh, no call of its own (marks repeat the call); normalized cell count, %; measured here: cell count, toxicity; reference of the scale not given here;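 cells exposed to compound for 48 h; stained nuclei by imaging scaled within each plate; lower means fewer cells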
HSV augment primary fold: also measured in HSV augment; calls as there; fold increase; compound at 10 µM; measured here: primary screen fold increase 10 uM; tested in PC3 cells;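 GFP signal in the first replicate; 1 = infected wells without compound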
* marks the source's active call; other numbers are inactive results; i = inactive; u = inconclusive; x = not tested or not shown.

Each structure is followed by: INS promoter inh cell count	HSV augment	INS promoter inh	RGS16-Gao HTS	GALR2 ag	HSV augment primary fold	PKD1 inh
> O=C(Nc1ccccc1F)c1ccc(Br)o1
→ 112	i	14	105	-1.2	1	-11
> CC(=O)N1CCN(C(=O)c2ccc(Oc3ccccc3)cc2)CC1
→ x	i	x	100	x	1	-3
> Cc1cc(Cl)ccc1OCC(=O)NCCCN1CCOCC1
→ 115	i	0	110	-1.2	0.96	3
> Cc1cc2ccccc2n1CCNC(=O)c1cccs1
→ x	i	x	58	-5.0	1.1	0
> CCOc1ccc(-n2c(Cc3cc(=O)[nH]c(=O)[nH]3)nnc2SCC)cc1
→ x	i	x	99	-2.5	1	-10
> COc1ccccc1Oc1ccc(N/C=C2/CCCC2=O)cc1
→ 74	i	-87	92	-0.6	1.1	-12
> COc1ccc(NC(=O)Nc2ccc(F)cc2F)cc1
→ 157	i	-50	107	x	1.1	0
> OCCN1CNC(=S)NC1
→ x	i	x	90	x	1.1	x
> O=C1CC(c2ccccc2)n2nc(NC(=O)c3ccccn3)nc2N1 (stereo unspecified)
→ x	i	x	99	-2.2	1	0
> CCCCC1(C(=O)OCC)CC(CSC(=N)N)OC1=O (stereo unspecified)
→ x	i	x	97	x	0.98	-8
> CCCCN(CCCC)S(=O)(=O)c1ccc(OC)c2ncccc12
→ 83	i	-11	106	1.1	1	-1
> N#CC1=C(Nc2ccccc2)SC=C(c2ccc(Cl)c(Cl)c2)N=C1N1CCOCC1
→ 117	x	-87	101	-3.1	x	-13
> Cc1cc2c(n1-c1ccc(Br)cc1)CC(C)(C)CC2=O
→ 114	i	17	99	2.3	0.94	6
> Nc1ccc2c3c(cccc13)C(=O)N(c1ccccc1)C2=O
→ 143	u	-165	97	x	x	27
> Cc1ccc(CN(C)CC(=O)Nc2ccc3c(c2)CCC3)cc1
→ 88	i	0	97	x	1.3	-2
> Cc1nc(N)nc(Cl)c1Cc1ccc(Cl)cc1
→ 67	i	0	99	x	1.1	2
> CC(=O)Nc1ccc(NC(=O)COC(=O)c2ccccn2)cc1
→ 109	i	-47	98	x	0.92	2
> COc1ccc(S(=O)(=O)Nc2ccccc2OC)cc1NC(=O)Cc1cccs1
→ x	i	x	75	-0.2	0.93	8
> CC(C(=O)N1CCCC1)c1ccc([N+](=O)[O-])cc1 (stereo unspecified)
→ 24	i	6	102	x	1.2	-9
> N=c1n(-c2ccccc2)c(O)cc(=O)n1-c1ccccc1
→ x	i	x	98	0.6	0.92	7
> COc1cc(SC)ccc1C(=O)N1CCN(c2ccccc2)CC1
→ 102	i	-92	99	x	1	7
> Cc1nn(-c2ncc(C(F)(F)F)cc2Cl)c(=O)n1-c1ccccc1Cl
→ 65	x	21	106	-1.1	x	-6
> CCOC(=O)c1c(C)nc2c(c1-c1cc(OC)c(OC)c(OC)c1)C(=O)c1ccccc1-2
→ 77	i	1	99	-1.7	0.73	-4
> O=C(Nc1ccccn1)NC12CC3CC(CC(C3)C1)C2
→ 154	i	-36	98	-3.4	1	-8
> Cn1c(=O)c2c(SCc3cccc(C(F)(F)F)c3)nc(-c3ccco3)nc2n(C)c1=O
→ x	i	x	98	-1.7	0.62	1
> CC(C)C(=O)NC(NC(=S)Nc1cccc2cccnc12)C(Cl)(Cl)Cl (stereo unspecified)
→ 132	i	-9	101	-1.4	0.92	48
> O=C(NCc1cc(C(F)(F)F)cc(C(F)(F)F)c1)C1CC(c2c(Cl)cccc2Cl)=NO1 (stereo unspecified)
→ 101	i	13	104	1.2	1.1	-3
> CN1CCN(C(=O)c2ccc(CN3CCOCC3)cc2)CC1
→ x	i	x	102	-1.1	0.99	-1
> O=C(N/N=C1\CCSc2ccc(F)cc21)c1cccnc1
→ x	i	x	98	x	0.87	0
> COc1ccc(Cc2nnc(Nc3ccc(C)cc3C)[nH]c2=O)cc1
→ 100	i	40	102	-0.6	0.95	-13

The last 2 compounds of the section above open the next one:
Each structure is followed by: INS promoter inh cell count	HSV augment	INS promoter inh	RGS16-Gao HTS	GALR2 ag	HSV augment primary fold	PKD1 inh
> O=C(N/N=C1\CCSc2ccc(F)cc21)c1cccnc1
→ x	i	x	98	x	0.87	0
> COc1ccc(Cc2nnc(Nc3ccc(C)cc3C)[nH]c2=O)cc1
→ 100	i	40	102	-0.6	0.95	-13
> Cn1c(N)c(C(=O)COC(=O)CN2C(=O)c3ccccc3C2=O)c(=O)n(C)c1=O
→ x	i	x	97	-0.1	1.1	3
> O=C(/C=C/c1ccco1)Nc1scc(-c2ccccc2)c1C(=O)O
→ x	i	x	101	x	1.2	x
> CCOC(=O)C1=C(O)C(=O)N(Cc2cccnc2)C1c1ccc(OC)cc1 (stereo unspecified)
→ 103	i	29	98	x	0.97	-6
> CC(C)CN(C(=O)CN1CCOCC1)c1c(N)n(CC(C)C)c(=O)[nH]c1=O
→ x	i	x	157	-0.2	1	6
> CSc1cccc(NC(=O)C(C)C)c1
→ x	i	x	101	x	0.98	-1
> Cc1ccc(NC(=O)c2cc(C(C)(C)C)nn2Cc2ccccc2)cc1
→ x	i	x	98	x	0.94	x
> COc1ccc(/C=C2\SC(=O)N(CC(=O)NCCC(C)C)C2=O)cc1OC
→ x	i	x	87	x	0.89	x
> CCOc1ccc(N=C2NC(=O)S/C2=C\c2ccc(N(C)C)cc2)cc1
→ 141	x	-27	103	-4.1	x	-20
> Cc1ccc(C)c(OCC(=O)Nc2cc(C(=O)O)cc(C(=O)O)c2)c1
→ x	i	x	104	x	0.94	-3
> c1ccc(-c2noc(-c3cccc4ccccc34)n2)nc1
→ 118	i	22	109	-1.9	0.87	-6
> COc1ccc(/C(C)=N\NC(=O)C(c2ccncc2)N2CCOCC2)cc1 (stereo unspecified)
→ x	i	x	91	x	0.95	x
> O=C(CSc1nnc(-c2cccc(S(=O)(=O)N3CCCCC3)c2)o1)c1ccc[nH]1
→ 63	i	0	-5	-0.9	0.86	-4
> CCOc1ccccc1Nc1ncccc1C(=O)N1CCCC1
→ 109	i	-21	78	-1.7	0.99	-3
> Cc1c(NC(=O)C2(c3ccccc3)CCOCC2)c(=O)n(-c2ccccc2)n1C
→ 167	i	31	101	-1.1	1	-5
> O=C(O)CSc1nnc(CNc2cccc(C(F)(F)F)c2)n1Cc1ccco1
→ 187	i	-62	96	1.7	0.82	-6
> C=CCNCCOc1ccccc1-c1ccccc1
→ 100	x	0	103	-0.8	x	-4
> Nc1ccccc1NC(=O)c1ccccc1N
→ 81	i	50	100	-1.9	1.1	-5
> CCOc1cc(CNc2ccc(OC)cc2)cc(Br)c1OCC(=O)NC(C)(C)C
→ x	i	x	98	-1.4	0.96	9
> COc1ccccc1/C=N/NC(=O)c1ccccc1Cl
→ x	i	x	98	x	0.98	-5
> Cc1ccc2nc(Nc3ccccc3O)nc(-c3ccccc3)c2c1
→ x	i	x	48	-0.7	0.96	-17
> O=C(Nc1ccc2c(c1)CCC2)c1ccccc1F
→ x	i	x	99	-1.5	1.1	2
> C=CCn1c(CNC(=O)c2ccccc2F)nnc1SCc1nc2ccccc2c(=O)[nH]1
→ 140	i	47	x	x	0.91	-5
> O=C(c1cnsn1)N1CCC(CO)(Cc2cccc(F)c2)CC1
→ x	i	x	96	x	1.1	-4
> Cc1sc2c(c1C)c(=O)n(-c1ccc(Cl)cc1)c(=O)n2Cc1cc(=O)n2ccccc2n1
→ 162	i	12	45	-1.3	1	2
> COc1ccc(N(CC(=O)N2CCc3ccccc32)S(=O)(=O)c2c(C)n[nH]c2C)cc1
→ x	i	x	102	-0.3	0.92	10
> CCc1ccc(-c2cc(C(=O)Nn3cnnc3)c3ccccc3n2)cc1
→ 164	i	10	109	-0.3	0.96	1
> CC1CN=C2C(C(=O)Nc3ccccc3)=C(O)CC(c3ccccc3)N21 (stereo unspecified)
→ 144	i	7	100	1.3	0.92	-9
> Fc1ccccc1C(c1nnnn1Cc1ccc2c(c1)OCO2)N1CCN(Cc2ccco2)CC1 (stereo unspecified)
→ x	i	x	93	-0.9	0.61	6
> Cc1c(Nc2nc(-c3cccc([N+](=O)[O-])c3)cs2)c(=O)n(-c2ccccc2)n1C
→ x	i	x	107	x	1.2	7
> COc1cccc(-c2cc(C(=O)N3CCCCC3C)no2)c1 (stereo unspecified)
→ 64	x	-88	101	-1.1	x	-4
> Cc1[nH]c(=O)[nH]c(=O)c1S(=O)(=O)NCC12CC3CC(CC(C3)C1)C2
→ 123	i	0	103	-1.1	0.87	-8
> COC(=O)c1cc2c(ccn2-c2ccc(F)cc2)n1CC(=O)OC(C)C
→ x	i	x	108	x	0.88	2
> COc1cccc(CNCc2ccc(SC)cc2)c1OC
→ x	i	x	105	-2.1	0.93	1
> NS(=O)(=O)c1ccc(NC(=S)NC(=O)c2ccc(-c3ccccc3)cc2)cc1
→ 60	i	47	59	-2.1	0.99	-12
> Cc1nc(-c2cc(-c3nc(-c4ccc(C(F)(F)F)cc4)no3)no2)cs1
→ x	i	x	102	x	1	x
> COc1ccc(CNC(=O)c2ccc(C(C)C)cc2)cc1
→ x	i	x	99	x	1	3
> CCOC(=O)c1cnc(SCCN2CCOCC2)nc1N
→ 110	i	21	109	x	1	6
> COC(=O)CSc1nnc(CNS(=O)(=O)c2ccc(Br)cc2)n1C
→ 92	i	-12	100	x	1	9
> CCOC(=O)C1=C(O)C(=O)N(c2ccc(S(N)(=O)=O)cc2)C1c1ccc(OC)cc1 (stereo unspecified)
→ 119	i	-39	104	-2.2	0.96	-4
> COc1ccc(NC(=O)CSc2nnc(Cn3cnc4ccccc43)n2C)cc1
→ 158	i	39	101	-1.8	0.99	5
> Cc1cccc(NC(=O)c2ccc(S(=O)(=O)N3CCOCC3)cc2)n1
→ x	i	x	99	x	1	-1
> CN(Cc1ccccc1)C(=O)c1[nH]cnc1C(=O)N[C@@H](Cc1ccccc1)C(=O)OCc1ccccc1
→ x	i	x	99	x	0.81	-3
> COc1cc(C(=O)N/N=C/c2cc([N+](=O)[O-])cs2)cc(OC)c1OC
→ 6	x	-375	52	-1.4	x	0
> Cc1cccc(N(C)C(=O)CCS(=O)(=O)c2cccc3nonc23)c1
→ x	i	x	103	-1.2	0.85	-7
> O=C(Cn1nc2n(c1=O)-c1ccccc1SC2)N/N=C/c1cccnc1
→ x	i	x	100	x	1.2	x
> C1CSC2(N1)C1CC3CC2CC(C1)C31NCCS1 (stereo unspecified)
→ 102	i	19	93	-1.5	0.78	-1
> COc1ccccc1N1C(=O)C2C(C(=O)c3ccccc3)=NN(c3ccc(C)cc3)C2C1=O (stereo unspecified)
→ x	u	x	104	x	x	x
> NC(=O)c1ccc(NC(=O)Cc2csc(-c3ccccc3)n2)cc1
→ 75	i	50	98	x	0.87	-2
> COC(=O)c1ccc(C(NC(=O)OCc2ccccc2)/C(C)=C/[C@@H](C)C(=O)NCc2ccc(OC)c(OC)c2)cc1 (stereo partly specified)
→ 125	i	-19	100	-1.2	0.68	2
> COc1ccc(CCCC(=O)NCc2ccccc2)cc1C
→ 98	i	-70	105	-1.8	0.81	-1

(next part)
Each structure is followed by: INS promoter inh cell count	HSV augment	INS promoter inh	RGS16-Gao HTS	GALR2 ag	HSV augment primary fold	PKD1 inh
> Cc1nn(-c2ccccc2)c(N2CCCC2)c1/C=N/NC(=O)c1cc(-c2cccnc2)nc2ccccc12
→ x	i	x	105	0.0	0.71	-9
> COc1cc(C2=NOC(C(=O)NCc3ccccn3)C2)cc(OC)c1OC (stereo unspecified)
→ 106	i	-28	95	-1.6	0.79	-8
> CCOc1cc(N2CCOCC2)c(OCC)cc1NC(=O)COC(=O)c1cc2ccccc2cc1O
→ 87	i	-4	118	-0.5	0.83	-6
> O=C(Cn1ccc2ccccc2c1=O)NCCC(=O)N1CCN(c2cccc(C(F)(F)F)c2)CC1
→ x	i	x	99	-3.2	0.9	4
> CC(C)OC(=O)c1cccnc1N1CCN(c2cccc(Cl)c2)CC1
→ x	i	x	107	x	1.1	6
> Cc1cccc(NC2=C/C(=N/S(=O)(=O)c3cccs3)c3ccccc3C2=O)c1
→ 149	x	8	103	2.1	x	-1
> C#CCOCCOCCOCCNc1nc(N2CCN(C(=O)[C@H]([C@@H](C)CC)n3cc(CCCN=C(N)N)nn3)CC2)nc(N2CCN(C(=O)[C@H]([C@@H](C)CC)n3cc(CCCN=C(N)N)nn3)CC2)n1
→ 71	i	50	114	-1.1	0.79	-2
> Cc1ccc(NC(=O)c2cc([N+](=O)[O-])ccc2NCc2cccnc2)cc1Cl
→ 94	i	-14	107	-2.0	0.93	-10
> COc1ccccc1NC(=O)CSc1nnc(Cn2c(=O)sc3ccccc32)n1C
→ x	x	x	103	-2.8	x	0
> Cn1nnnc1Sc1ncnc2scc(-c3ccccc3)c12
→ x	i	x	100	-0.5	0.52	-1
> O=S(=O)(Cc1ccc(Cl)cc1)N1CCN(Cc2ccc3c(c2)OCO3)CC1
→ x	i	x	94	x	1.1	x
